NPYLR7 agonist: mosquito NPYLR7 agonism | HEK293T NPYLR7/Galpha15, GCaMP6s calcium fluorescence | activation, % at 10 µM | 0.15% of 270,000 active; in the data active = activation above about 40%;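 note: 0% = vehicle and 100% = reference agonist at the receptor; some compounds past the cut are filed as inactive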
NPYLR7 agonist max-min: second read-out of NPYLR7 agonist, no call of its own (marks repeat the call); activation, %; measured here: Max-Min RFU normalised activation; some inactives read as strong as hits;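 span of the calcium signal over five minutes; 0% = vehicle and 100% = native peptide agonist; compound fluorescence can raise it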
Starred values were filed as active, the others as inactive. A portion of the library (hit frequency here may not be typical).

Fields – NPYLR7 agonist	NPYLR7 agonist max-min
1) CC(C)(C)c1nc(CN(Cc2cccs2)C2CCS(=O)(=O)C2)cs1 (configuration not stated)
→ -3	-4
2) C=CCN(Cc1nccn1Cc1cccc(OC)c1)C(=O)c1cccc(F)c1
→ 1	8
3) CN(C)C1CCCN(C(=O)CCCc2ccc(Cl)cc2)CC1 (configuration not stated)
→ 1	3
4) CN(C)S(=O)(=O)c1cccc(C(=O)N2CCN(S(=O)(=O)c3ccccc3)CC2)c1
→ 1	3
5) O=C(O)COc1ccccc1C=NN1CCN(Cc2ccccc2)CC1
→ 23	9
6) CCS(=O)(=O)CCOc1ccc(S(=O)(=O)NC(C)C(C)C)cc1 (configuration not stated)
→ 0	-3
7) Oc1c(C(Nc2ccccn2)c2ccncc2)ccc2cccnc12 (configuration not stated)
→ -3	-5
8) Cn1c(=O)[nH]c(=O)c2c1ncn2CCN1CCCCC1
→ -1	23
9) O=C(NCC1CCCO1)C(C1CCCC1)N1CCN(C(=O)c2cccc(F)c2)CC1 (configuration not stated)
→ -8	-2
10) CC(Oc1ccccc1C#N)C(=O)N1CCc2ccccc2C1 (configuration not stated)
→ 2	-1
11) COc1ccc2nc(NC(=O)C3=COCCO3)sc2c1
→ -7	-7
12) CC(C)Oc1cccc(C(=O)C2CCCN(Cc3c[nH]c(=O)[nH]c3=O)C2)c1 (configuration not stated)
→ 11	7
13) Cc1ccc(F)cc1NC(=O)NCCCN(C)C
→ -5	-6
14) CCN(CCN1CCCC1)Cc1nc[nH]c1C
→ 0	2
15) N#CCS(=O)(=O)c1ccc(Cl)cc1
→ 5	4

Three of the compounds above, tab-delimited.
nr	SMILES	NPYLR7 agonist	NPYLR7 agonist max-min
4	CN(C)S(=O)(=O)c1cccc(C(=O)N2CCN(S(=O)(=O)c3ccccc3)CC2)c1	1	3
1	CC(C)(C)c1nc(CN(Cc2cccs2)C2CCS(=O)(=O)C2)cs1 (configuration not stated)	-3	-4
14	CCN(CCN1CCCC1)Cc1nc[nH]c1C	0	2

New compounds follow.
Fields – NPYLR7 agonist	NPYLR7 agonist max-min
16) Cc1nc2c(=O)n(CC(=O)c3ccc4c(c3)OCCO4)nc(-c3ccco3)c2s1
→ 2	-2
17) Cn1c(-c2ccc(Cl)cc2)nn(CN2CCN(C(=O)c3ccccc3)CC2)c1=S
→ -4	-7
18) CCC(NS(=O)(=O)c1ccc(Cl)cc1)C1c2cc(OC)c(OC)cc2CCN1Cc1cccc(F)c1 (configuration not stated)
→ 6	10
19) O=C(Nc1ccccn1)c1cccc(S(=O)(=O)N2CCCCC2)c1
→ -7	-9
20) COc1ccc(Cl)c2sc(N(CCCN(C)C)C(=O)c3ccccc3S(C)(=O)=O)nc12
→ 1	-1
21) Cc1ccc(C)c(-n2c(C)cn3c4c(=O)n(CCN5CCCCC5)c(=O)n(C)c4nc23)c1
→ 18	9
22) CN(CC(=O)Nc1cnc(-c2cccc(O)c2)nc1)S(C)(=O)=O
→ 0	-4
23) CC(C)CCN(Cc1cccc(Cl)c1)Cc1cccn1Cc1ccc(C(F)(F)F)cc1
→ 3	17
24) Cc1cccc2c1NC1(CCN(Cc3ccncc3)CC1)NC2=O
→ 6	21
25) CC1=NC2=C(C(=O)CCC2)C(c2ccsc2)C1C(=O)OCCc1ccccc1 (configuration not stated)
→ -6	-12
26) NC(=O)c1cccc(CC2CCN(C(=O)CCCn3cccn3)C2)c1 (configuration not stated)
→ -7	-8
27) COc1cccc(C(=O)NCCCn2ncc3ccccc32)c1C
→ -12	-15
28) CCCc1nc(N2CCCN(C(=O)CCl)CC2)c2c(-c3cccc(C(F)(F)F)c3)noc2n1
→ -4	-3
29) O=C(O)c1nc[nH]c1C(=O)O
→ -7	-7
30) CSCc1ccc(C(=O)NC2CC(C)(C)Cc3c2cnn3-c2ccc(F)cc2)o1 (configuration not stated)
→ 11	-1
31) CCn1c(CC2CCNCC2)nn(CC2COc3ccccc3O2)c1=O (configuration not stated)
→ 3	-2
32) O=C(CN(CCN1CCOCC1)C(=O)C12CC3CC(CC(C3)C1)C2)N(Cc1ccc(F)cc1)Cc1cccs1
→ -8	-3
33) CCOC(=O)C1=C(C)N=c2s/c(=C\c3ccc(Cl)cc3Cl)c(=O)n2C1c1ccc(OC)cc1 (configuration not stated)
→ -2	-7
34) Cc1c(C)n2c3c(=O)n(Cc4ccccc4F)c(=O)n(C)c3nc2n1CCN1CCOCC1
→ -1	-1
35) CC(C)NC(=O)Nc1ccc(N(C)C)c(CN(C(=O)c2cccc(F)c2)C2CC2)c1
→ 4	5
36) CCOC(=O)c1c(NC(=S)NCC2CCCO2)sc(C)c1C (configuration not stated)
→ 4	2
37) CCCCCC(=O)N1[C@@H](c2ccco2)[C@@H](C(=O)O)C[C@]12CCCCN(CCO)C2=O
→ 5	18
38) Cn1cnc(S(=O)(=O)Nc2cccc(Cl)c2)c1
→ 3	1
39) CC(NC(=O)c1cccc(Cl)c1Cl)C(=O)NCc1ncc(C(C)(C)C)o1 (configuration not stated)
→ 1	-1
40) COC(=O)C(c1cccc(C)c1)n1ccnc1-c1ccccc1C(=O)O (configuration not stated)
→ 19	15
41) CC1=NS(=O)(=O)NC(C)=C1CCC(=O)Nc1ccc2c(c1)CCC2
→ 1	0
42) CCN(CC)C(=O)Oc1ccc2c(ccn2Cc2ccccc2I)c1-c1ccc(OC)cc1
→ 12	12
43) Cc1nc(N)nc(C)c1CC(=O)N1CCCC(CCc2ccccc2)C1 (configuration not stated)
→ 2	-11
44) C/C(CC(=O)NCc1ccccc1Cl)=N\NC(=O)c1ccccn1
→ -6	2
45) CC(C)CN1C(=O)N(Cc2ccccn2)C(=O)C12CCN(C1CCSC1)CC2 (configuration not stated)
→ 13	4

4 compounds already listed, arranged by number of heavy atoms, smallest number first:
Fields – NPYLR7 agonist	NPYLR7 agonist max-min
41) CC1=NS(=O)(=O)NC(C)=C1CCC(=O)Nc1ccc2c(c1)CCC2
→ 1	0
37) CCCCCC(=O)N1[C@@H](c2ccco2)[C@@H](C(=O)O)C[C@]12CCCCN(CCO)C2=O
→ 5	18
42) CCN(CC)C(=O)Oc1ccc2c(ccn2Cc2ccccc2I)c1-c1ccc(OC)cc1
→ 12	12
32) O=C(CN(CCN1CCOCC1)C(=O)C12CC3CC(CC(C3)C1)C2)N(Cc1ccc(F)cc1)Cc1cccs1
→ -8	-3

(continued)
Fields – NPYLR7 agonist	NPYLR7 agonist max-min
46) O=C(c1cccc2c1OCCO2)N1CCN(C(c2ccccc2)c2ccc(Br)cc2)CC1 (configuration not stated)
→ 21	8
47) CS(=O)(=O)CC(=O)Nc1cccc(NC(=O)Cc2ccccc2)c1
→ 4	0
48) CC(=O)Nc1cccc(NCCCc2nc(C)no2)c1C
→ 0	0
49) CCCCCCC(=O)NC1CC2CCC(C1)N2Cc1ccoc1 (configuration not stated)
→ 3	5
50) COc1cc(C=C2C(=O)N(C)C(=O)N(C)C2=O)ccc1Oc1ccc([N+](=O)[O-])cn1
→ -19	-24
51) O=C(c1cccs1)N(Cc1cccnc1)Cc1nccn1Cc1ccc(F)cc1
→ 6	6
52) COc1coc(C(=O)NCCc2ccccc2)cc1=O
→ 11	3
53) CC(Nc1ccc(-c2ccccc2)c(C(F)(F)F)c1)C(=O)N1CCNC1=O (configuration not stated)
→ 6	6
54) O=C(CSc1nc2ccccc2s1)Nc1nc(-c2ccccc2)cs1
→ 3	1
55) CCOCCCn1c(SCc2cccc(Oc3ccccc3)c2)nc2cc(C(=O)OCC)ccc21
→ 5	4
56) CC1(C)CCN(C(=O)c2cc(-c3cnc(C4CC4)nc3)nc3ccc(F)cc23)C1
→ 1	-5
57) Cc1ccc(/C=C2/Oc3cc(O)ccc3C2=O)s1
→ 165*	142*
58) CC1CN(C(=O)c2cc(C(C)C)n(-c3nc4ccccc4s3)n2)CC(C)O1 (configuration not stated)
→ 10	0
59) CC(=O)Oc1ccc(-n2c(C)cc(/C=C3\C(=O)N(c4ccccc4)N=C3C)c2C)cc1
→ -5	-1
60) CCCCNCc1ccc(OCC(=O)NC(C)(C)C)c(OCC)c1
→ 13	9
61) O=C(Cc1ccccc1)N(Cc1ccccn1)c1nc2c(F)cccc2s1
→ 1	3
62) O=C1N(Cc2ccc(F)cc2F)c2ccc(Cl)cc2C12NCCS2 (configuration not stated)
→ 23	30
63) O=C(NC1CC1)c1nc(-c2ccccc2)n2c1CCCCC2
→ 1	2
64) O=C(CC1CC1)N1CCC(n2cnc3cc(C(F)(F)F)ccc32)CC1
→ 4	3
65) Cc1ccc(S(=O)(=O)Nc2cccc(-c3ccc4nncn4n3)c2)cc1
→ -15	-10
66) CS(=O)(=O)c1ncc2c(n1)c(=O)c(C#N)c1[nH]c3ccccc3c(=O)n12
→ 5	5
67) Cc1nn(-c2ccccc2)nc1C(=O)Nc1ccc(S(=O)(=O)C(F)F)cc1
→ -1	-2
68) NC(c1ccc2c(c1)CCO2)c1cc(Cl)ccc1Cl (configuration not stated)
→ 1	-1
69) COc1ccc(C(C)(C)C(=O)NCC2(O)CCCCCC2)cc1OC
→ -5	-7
70) CC(C)N(CC(=O)N1CCSC1c1ccccc1Cl)Cc1c(F)cccc1F (configuration not stated)
→ 0	6
71) O=C(CSc1nc(=O)n(CC2CCCO2)c2c1CCCC2)NCc1ccc2c(c1)OCO2 (configuration not stated)
→ -6	-9
72) CCCc1ccccc1N1C(=O)CSC1c1cccc(NC(=O)c2ccc(OC)cc2)c1 (configuration not stated)
→ 4	8
73) O=C(c1csc(COc2cc(Cl)ccc2Cl)n1)N1CCCC1
→ 2	10
74) COc1cc(OC)cc(C(=O)OC2CCC(C(N)=O)CC2)c1 (configuration not stated)
→ 0	0
75) COc1cc(CNC(=O)CN2CC3(C)CC2CC(C)(C)C3)cc(OC)c1 (configuration not stated)
→ -2	-4

Record cards (already shown). Values in the order: NPYLR7 agonist, NPYLR7 agonist max-min
COc1cc(CNC(=O)CN2CC3(C)CC2CC(C)(C)C3)cc(OC)c1 (configuration not stated) reads -2, -4
O=C(Cc1ccccc1)N(Cc1ccccn1)c1nc2c(F)cccc2s1 reads 1, 3
CC(C)N(CC(=O)N1CCSC1c1ccccc1Cl)Cc1c(F)cccc1F (configuration not stated) reads 0, 6

The listing continues:
Fields – NPYLR7 agonist	NPYLR7 agonist max-min
76) COc1ccc(CN2CCN(Cc3csc(C(C)=O)c3)CC2CCO)c(C)c1C (configuration not stated)
→ -7	-11
77) CCCc1nc(N2CCN(S(=O)(=O)c3ccc(Cl)cc3)CC2)c2c3c(sc2n1)CCCC3
→ -11	-8
78) C#CCN(Cc1nc(-c2cccc(OC)c2OC)oc1C)C1CCCCC1
→ 4	0
79) N#Cc1cc(NC(=O)c2cccc(F)c2)ccc1Cl
→ 6	3
80) Cc1ccccc1CN(CCO)Cc1ncc[nH]1
→ 8	6
81) CCOc1ccc(Nc2nc(N(CCO)Cc3ccccc3)nc3c2cnn3-c2ccccc2)cc1
→ 1	0
82) O=C(CC1CSc2nccc(=O)n21)NCc1ccncc1 (configuration not stated)
→ -2	-3
83) Cc1ccsc1-c1nc(CN2CCN(c3cccc(C)c3C)CC2)c(C)o1
→ 8	1
84) CCOc1ccc(NC(=O)CSc2nnc(CNC(=O)COc3ccccc3)n2-c2ccc([N+](=O)[O-])cc2)cc1
→ -10	-5
85) ONc1cc(C(F)(F)F)ccc1-n1cnc2ccccc21
→ 7	6
86) C1CCc2c(sc3nc(C4CC4)nc(N4CCC5(CC4)OCCO5)c23)C1
→ -1	2
87) C/C(N)=C(/C#N)C(=O)CSc1nnc(-c2ccncc2)n1Cc1ccccc1
→ -7	-10
88) COc1ccc(-c2nc3cc(C)ccn3c2NC(=O)C(C)(C)C)cc1
→ -13	-7
89) CCNC(=O)Cn1c(CO)cnc1SCC(=O)Nc1cccc(C)c1
→ 4	6
90) COc1ccc(NC(=O)CSc2cn(CCNC(=O)c3ccccc3OC)c3ccccc23)cc1
→ -1	-1
91) O=C(CSc1nccn1Cc1ccccc1)NCC(F)(F)F
→ 18	9
92) CCc1cc(N2CCOCC2)nc(SCc2ccc(C(=O)NCc3ccncc3)cc2)n1
→ -5	-5
93) COc1cccc(CNc2nccnc2-c2cc(C(F)(F)F)cc(C(F)(F)F)c2)c1OC
→ 12	-1
94) COc1ccc(NC(=O)C(C2CCCC2)N2CCN(C(=O)c3ccc(Cl)cc3Cl)CC2)cc1 (configuration not stated)
→ -2	2
95) CC(C)C(C)CNC(=O)N1CCN(c2ccc(Cl)cn2)CC1 (configuration not stated)
→ 2	0
96) CC(C)c1ccc(NC(=O)Nc2ccc(N3CCCC3)c(C(=O)NCC3CCCO3)c2)cc1 (configuration not stated)
→ 22	26
97) O=C(CSc1nc(=O)[nH]c2c1CCC2)N1CCN(c2ccccc2)CC1
→ 0	-5
98) CCn1cc(C(CC(=O)NCCC(c2ccccc2)c2ccccc2)c2cccc(OC)c2)c2ccccc21 (configuration not stated)
→ 19	20
99) c1ccc(COC2CCCN(Cc3nc(CC4CC4)no3)C2)cc1 (configuration not stated)
→ -3	-6
100) Cn1c(Cl)cnc1COc1ccc(C(N)=O)cc1
→ 2	1
101) Cc1cccc(Cl)c1CNC(=O)c1ccc(-c2cc(-c3ccccc3)n[nH]2)cc1
→ -5	-4
102) Cc1cc(Cl)ccc1N1CCN(C(=O)c2cccc(Br)c2)C(C)C1=O (configuration not stated)
→ 11	20
103) CCCc1[nH]ncc1C(=O)N1CCCC(CCc2ccc(F)c(F)c2)C1 (configuration not stated)
→ -2	-6
104) COCCN(Cc1c(-c2cccc(C)c2)noc1N1CCCC1)C(=O)c1ccc(Cl)cc1
→ 9	10
105) CS(=O)(=O)N1CCOC(CNC(=O)CCC2CCCC2)C1 (configuration not stated)
→ -1	-1
106) CCc1nc2n(n1)C(=O)C(C(c1ccco1)N1CCN(c3ccccc3)CC1)S2 (configuration not stated)
→ -3	-10
107) CC(=O)c1c(C)oc2ccc(N(C(C)=O)S(=O)(=O)c3cc(C)c(C)cc3C)cc12
→ 1	0
108) CCn1nc(C)cc1C(=O)N(CCCN(C)C)c1nc2c(C)c(C)ccc2s1
→ 4	4

Screening results from PubChem BioAssay.
